Screens from PubChem BioAssay.
NPYLR7 agonist: agonists of mosquito NPYLR7 receptor, primary screen, cell-based, Aedes aegypti, calcium fluorescence, mosquito biting behavior; Aedes aegypti neuropeptide Y-like receptor 7 (NPYLR7); activation, % at 10 µM; HEK293T NPYLR7/Galpha15, GCaMP6s calcium fluorescence; AID 1259423, 2018; hit rate 0.15% among 270,000; in the data active = activation above about 40%;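 also: 0% = vehicle and 100% = reference agonist at the receptor; some compounds past the cut are filed as inactive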
NPYLR7 agonist max-min: recorded beside NPYLR7 agonist, whose call it bears; activation, %; measured here: Max-Min RFU normalised activation; some inactives read as strong as hits;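 span of the calcium signal over five minutes; 0% = vehicle and 100% = native peptide agonist; compound fluorescence can raise it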
The depositor's hits bear a star; & = joins results of further samples. The list is partial. The share of hits here may be higher or lower than overall.

SMILES	NPYLR7 agonist	NPYLR7 agonist max-min
O=C(NCCC(=O)N1CCCC2CCCCC21)c1ccccc1 (centres undefined)	0	-1
CC(=O)Nc1ccc(SCCCC(=O)Nc2cccnc2)nn1	-1	-2
CCOC(=O)N1CCN(CC(=O)N2N=C(c3ccc(OC)cc3OC)CC2c2ccccc2C)CC1 (centres undefined)	1	5
CC1Cc2ccccc2N1C(=O)c1ccc2ncsc2c1 (centres undefined)	-1	-1
CS(=O)(=O)c1ccccc1C(=O)OCc1cccc(Cl)c1	-2	-3
CCc1nc2n(n1)C(=O)C(C(c1ccc(Br)cc1)N1CCN(CCO)CC1)S2 (centres undefined)	-4	-8
COCCCN(CC(=O)N(CCc1c[nH]c2ccccc12)Cc1ccc(C(F)(F)F)cc1)C(=O)NC12CC3CC(CC(C3)C1)C2	0	8
Cc1ccc(-n2nnc(C(=O)NC(C)C)c2-c2ccco2)cc1	-10	-6
O=C(Nc1nnc(-c2ccc(Br)cc2)s1)C1CCCN1C(=O)Nc1c(Cl)cccc1Cl (centres undefined)	8	-2
CC(C)N(CC(=O)N(C)CCC#N)Cc1cccc(Cl)c1	5	5
CCCNC(=O)c1sccc1S(=O)(=O)NCc1cccs1	-2	17
Cc1cc(C)nc(Nc2ncn[nH]2)n1	7	8
NS(=O)(=O)c1cccc(NS(=O)(=O)c2ccc(Cl)c(C(=O)O)c2)c1	4	5
Cc1ccc(NC(=S)N2CCn3cccc3C2c2ccncc2)cc1 (centres undefined)	-1	-5
COc1ccc(Nc2cc(C)nc(N3CCN(C(=O)CCc4ccccc4)CC3)n2)cc1	12	1
CCn1cc(Nc2ccccc2S(=O)(=O)C(F)(F)F)cn1	-2	0
COc1ccc(N(C)S(=O)(=O)c2ccc(OC)c(N3CCN(C(=O)c4ccc([N+](=O)[O-])o4)CC3)c2)cc1	31	19
CC(C)C(C(=O)O)N1C(=O)/C(=C/c2cccc3ccccc23)SC1=S (centres undefined)	-5	-9
Cc1cc(NCCN(C)C)n2nc(C)c(-c3ccccc3)c2n1	-4	-7
CC(C)c1ccc(Nc2ncnc3[nH]ncc23)cc1	2	3
CN(CCCN1CCOCC1)Cc1nc(-c2cccs2)no1	6	1
Cc1nn(C2CCS(=O)(=O)C2)c(Cl)c1CNCC1CCCC1 (centres undefined)	0	-2
FC(F)Oc1ccc(C2CC(c3ccc(Cl)cc3)=Nc3ncnn32)cc1 (centres undefined)	14	14
CCNS(=O)(=O)c1cccc(C(=O)Nc2cc(Cl)cc(Br)c2OC)c1	-1	1
O=C(NC1CCN(c2ccccc2C(=O)NCc2ccccc2F)CC1)c1cccs1	11	8
Continuation.
SMILES	NPYLR7 agonist	NPYLR7 agonist max-min
O=C(NCCN1C(=O)SC(=Cc2ccc(Cl)c(Cl)c2)C1=O)c1ccco1	-1	4
C/C(=C\c1ccccc1)c1nc2ccccn2c1NC1CCCCC1	3	8
O=C(c1ccco1)N1CCN(c2nc(CN3CCSCC3)nc3ccccc23)CC1	17	8
COCCN(Cc1nccn1Cc1ccc(C(F)(F)F)cc1)C(=O)c1ccc(OC)cc1	16	20
COc1ccc(N2CCN(Cc3ccc4nonc4c3)C(C)C2)cc1 (centres undefined)	4	5
COCCN(Cc1nc(C(=O)N2CCC(n3c(=O)[nH]c4ccccc43)CC2)cs1)C(=O)Nc1cccc(Cl)c1	10	13
COC(=O)Cc1[nH]n(-c2nc3ccccc3s2)c(=O)c1C(C)=NCCc1ccc(OC)cc1	-11	-17
O=C(O)c1ccccc1CN1CCC(C(O)c2cccs2)CC1 (centres undefined)	-3	-1
O=C(Cc1ccccc1)Nc1ccnn1C1CCN(Cc2ccc3cc(F)ccc3n2)CC1	1	0
Cc1ccc(-n2c(SCc3ccc(C(=O)O)cc3)nnc2-c2cccnc2)cc1	-3	-8
CC(Oc1cccc(Br)c1)C(=O)NCCNC(=O)c1nc(Cn2cc(Cl)cn2)no1 (centres undefined)	-1	-3
CN(C(=O)CCN1C(=O)CCC1=O)c1ccccc1	6	0
CN(Cc1cnc(N2CCOCC2)nc1)CC1Cc2ccccc2CN1C (centres undefined)	6	6
O=C(CCC1CCCN(Cc2ccc(C(F)(F)F)cc2)C1)Nc1ccccc1F (centres undefined)	8	7
COc1ncc(CN(C)C(C)c2cccnc2)cn1 (centres undefined)	30	17
COc1cccc(C(=O)Nc2nnc(-c3ccc(F)cc3)s2)c1	-8	-9
CCCc1cc(=O)oc2cc(OCC(C)=O)ccc12	-3	-3
O=C(Nc1ccccc1OC(F)F)N1CC(=O)N2CCc3c(F)cccc3C2C1 (centres undefined)	28	25
Cc1ccccc1-c1n[nH]c(=S)n1N=Cc1ccc(N(C)CCO)cc1	-2	-5
Cc1noc(C)c1CC(=O)N1CC(=O)N(C(C)C)CC(OCc2ccc(OC(F)(F)F)cc2)C1 (centres undefined)	7	0
COc1ccc(CC2(CCC(=O)N3CCN(C4CCCCC4)C(=O)C3)CCC(=O)N2)c2ccccc12 (centres undefined)	-3	-7
CCc1cc(CN(C)C2CCC3(CC2)CCN(C(=O)N(C)C)CC3)on1	6	4
Cc1ccnc(NC(=O)c2cnn(-c3ccccc3F)c2C(F)(F)F)c1	15	8
CNC(=O)CC1SC(=Nc2ccc(F)cc2F)N(Cc2sccc2C)C1=O (centres undefined)	3	5
COc1cccc(C(C)N2CCC(Cc3cnn(C)c3)C2)c1 (centres undefined)	8	5
(further entries)
SMILES	NPYLR7 agonist	NPYLR7 agonist max-min
O=C1N=C2OC=C(C(=O)Nc3ccc(-n4cccn4)cc3)N2CCN1	-6	-10
CN(C)c1ccc(/C=C2\N=C(c3cccc(F)c3)OC2=O)cc1	6	2
CCc1c(C)nn(CCNC(=O)c2cc(C)nc3c(C)cccc23)c1C	3	-1
CC(=O)N1CCN(CC[C@@H]2CC[C@H](O)[C@@H](C(=O)N(C)Cc3ccccc3)O2)CC1	-9	-13
CCN(CCCNC(=O)CCCn1cnc2ccccc2c1=O)c1ccccc1	9	4
CCC(C)C(NC(=O)c1ccc([N+](=O)[O-])cc1Cl)C(=O)Nc1nnc(-c2ccc(Cl)cc2)s1 (centres undefined)	3	4
O=C1CC(Nc2cnc3ccccc3n2)CN1C1Cc2ccccc2C1 (centres undefined)	8	4
Cc1cc(C)c(NC(=O)Cn2nc3n(C)c(=O)c4c(c(-c5ccccc5)cn4C)n3c2=O)c(C)c1	16	4
CCOc1ccc(NC(=O)N2CCc3cc(OC)c(OC)cc3C2CNC(=O)Cc2ccccc2)cc1 (centres undefined)	9	10
Cc1cccc(OCC(=O)N2CCC(n3c(Cc4ccccc4)nc4ccccc43)CC2)c1C	-5	-6
CNC(=O)NC(=O)COC(=O)c1ccc([N+](=O)[O-])o1	0	-2
O=C(CSc1nc2ccccc2c(=O)n1-c1cccc(Cl)c1)N1CCCC1	0	-2
COc1ccc(Nc2ncnc3[nH]ncc23)c(OC)c1	12	11
CC(C)C(NCc1cccc2c1OCCCO2)c1cccs1 (centres undefined)	2	-1
CC1(NC(=O)c2nn(-c3ccccc3)c3c2CCC3)CCS(=O)(=O)C1 (centres undefined)	0	-1
CCC(=O)Nc1cccc(C(=O)N(CC#Cc2ccccc2)C2CC2)c1	16	0
CC1C(=O)N(c2cccc(F)c2)CCN1C(=O)c1ccc(F)cc1 (centres undefined)	-6	-3
O=C1NC(c2ccccc2)C(=O)N(CC(=O)N2CCCC(O)C2)c2ccccc21 (centres undefined)	0	7
Cc1cc(C)cc(-n2ncc3c2CCCC3NC(=O)c2ccccc2N2CCOCC2)c1 (centres undefined)	1	-1
N#Cc1ccc(-n2ncc3c2CCN(C(=O)/C=C/c2ccoc2)C3)cc1	1	17
Cc1ccsc1CN(Cc1ccc(F)cc1)Cc1nc(C(=O)NC(C)c2ccccc2)co1 (centres undefined)	-7	6
COC(=O)c1ccc(N=C2SC(C(=O)Nc3ccc(F)cc3)CC(=O)N2C)cc1 (centres undefined)	-1	-3
CC1(C)Cc2cc(C3CC(=O)NCc4nc5ccccn5c43)ccc2O1 (centres undefined)	-1	-2
COc1ccc(C2=NNC(c3ccccc3)C2)c(O)c1 (centres undefined)	-1	-2
COc1cccc(-c2nc(C)c(-c3ccc(SCC(=O)Nc4nc(C)cs4)nn3)s2)c1	5	-10

17 structures already listed, arranged by formula weight, low to high.
SMILES	NPYLR7 agonist	NPYLR7 agonist max-min
COc1ccc(C2=NNC(c3ccccc3)C2)c(O)c1 (centres undefined)	-1	-2
COc1ccc(Nc2ncnc3[nH]ncc23)c(OC)c1	12	11
CN(C)c1ccc(/C=C2\N=C(c3cccc(F)c3)OC2=O)cc1	6	2
CC1C(=O)N(c2cccc(F)c2)CCN1C(=O)c1ccc(F)cc1 (centres undefined)	-6	-3
O=C1N=C2OC=C(C(=O)Nc3ccc(-n4cccn4)cc3)N2CCN1	-6	-10
O=C1CC(Nc2cnc3ccccc3n2)CN1C1Cc2ccccc2C1 (centres undefined)	8	4
CCC(=O)Nc1cccc(C(=O)N(CC#Cc2ccccc2)C2CC2)c1	16	0
CC1(C)Cc2cc(C3CC(=O)NCc4nc5ccccn5c43)ccc2O1 (centres undefined)	-1	-2
CC1(NC(=O)c2nn(-c3ccccc3)c3c2CCC3)CCS(=O)(=O)C1 (centres undefined)	0	-1
CCN(CCCNC(=O)CCCn1cnc2ccccc2c1=O)c1ccccc1	9	4
O=C(CSc1nc2ccccc2c(=O)n1-c1cccc(Cl)c1)N1CCCC1	0	-2
COC(=O)c1ccc(N=C2SC(C(=O)Nc3ccc(F)cc3)CC(=O)N2C)cc1 (centres undefined)	-1	-3
Cc1cccc(OCC(=O)N2CCC(n3c(Cc4ccccc4)nc4ccccc43)CC2)c1C	-5	-6
COc1cccc(-c2nc(C)c(-c3ccc(SCC(=O)Nc4nc(C)cs4)nn3)s2)c1	5	-10
Cc1cc(C)c(NC(=O)Cn2nc3n(C)c(=O)c4c(c(-c5ccccc5)cn4C)n3c2=O)c(C)c1	16	4
CCOc1ccc(NC(=O)N2CCc3cc(OC)c(OC)cc3C2CNC(=O)Cc2ccccc2)cc1 (centres undefined)	9	10
CCC(C)C(NC(=O)c1ccc([N+](=O)[O-])cc1Cl)C(=O)Nc1nnc(-c2ccc(Cl)cc2)s1 (centres undefined)	3	4

Next part
SMILES	NPYLR7 agonist	NPYLR7 agonist max-min
CCC(C)(C)NC(=O)CSc1nnc(N2CCCC2)n1-c1ccc(C)cc1	-3	-4
COc1ccc2nc(-c3ccc(OC)c(NC(=O)CC4CCCC4)c3)cn2n1	-7	-11
CN(Cc1cccc(F)c1)Cc1nc2ccccc2c(=O)n1Cc1ccco1	-6	-7
c1ccc(Cc2noc(-c3ccc(N4CCN5CCCC5C4)nc3)n2)cc1 (centres undefined)	14	3
CCNC(=O)CC[C@H](N)C(=O)O	-6	-11
CN(Cc1cc2ccccc2s1)C(=O)CCc1nnc(CCc2c[nH]c3ccccc23)o1	-3	-5
O=c1c2[nH]c3ccccc3c2ncn1Cc1ccccc1	0	-5
CNc1nc(-c2ccc(NC(=O)C(C)C)cc2)c(C)s1	-5	-7
Cc1cc(C)cc(C(=O)NCc2ccc(-c3csc(C)n3)s2)c1	-2	5
CC(C)(C)c1ccc(S(=O)(=O)N2CCN(C(=O)CN3CCCCCC3=O)CC2)cc1	17	5
Cc1ccc(N2C(=O)CC(C3CCCC=C3N3CCOCC3)C2=O)cc1 (centres undefined)	1	-5
COc1cccc2cc(-c3csc(NCc4ccc(F)cc4)n3)c(=O)oc12	0	2
COc1ccc(CN2CCNC(=O)C2CC(=O)N(C)Cc2nc3ccccc3[nH]2)cc1OC (centres undefined)	3	4
COc1ccc(-n2nnnc2CNS(=O)(=O)c2c(C)cc(C)cc2C)cc1	3	0
CCN(C)C(=O)Nc1ccc(F)c(NC(=O)c2ccoc2C)c1	10&8	8&1
Cc1nnc(CN2CCC(=O)N(Cc3ccc(F)cc3)C(C(C)C)C2)s1 (centres undefined)	0	4
Cc1sc(C(=O)Nc2nccn(C)c2=O)cc1-c1ccc(F)cc1	-24	-24
Cn1cc(C(CC(=O)NCc2cccnc2)c2ccc(Cl)cc2)c2ccccc21 (centres undefined)	-2	7
CC(=O)c1ccc(NC(=O)Cn2nc(C(F)(F)F)c(Cl)c2C)cc1	15	13
COCCN=c1scc(-c2ccc(OC(F)F)cc2)n1N=Cc1cc(OC)c(OC)c(OC)c1	0	0
Cc1c(NCc2cccnc2)cccc1C(=O)N1CCN(C)C(=O)C1C (centres undefined)	0	1
COc1ccc(OC)c2[nH]c(=O)c(CCNC(=O)c3cccc(C)c3)cc12	1	25
Cc1ccccc1NC(=O)CN1C(=O)c2ccccc2C1=O	-8	-15
CCOc1ccccc1CCC(=O)Nc1ccc2oc(N(C)C)nc2c1	3	6
CC(C)CC(C)OCCC(=O)Nc1cc(Br)c[nH]c1=O (centres undefined)	4	1
Next section.
SMILES	NPYLR7 agonist	NPYLR7 agonist max-min
COc1cccc(-c2nc3c(NCC4CC4)nccc3[nH]2)c1F	-5	-11
Cc1csc(C(NC(=O)N2CCOC(C)C2)C2CC2)n1 (centres undefined)	0	-2
CCOc1ccc(C(=O)c2c(N)c(C(=O)Nc3ccccc3C)c3ccccn23)cc1	-3	-6
CC(=O)NC1C(=O)N(CCCOc2ccc(Cl)cc2)c2ccc(Cl)cc21 (centres undefined)	-2	-3
CC(C)N(C)S(=O)(=O)NC1CCC(c2ccccc2)CC1 (centres undefined)	4	3
Cc1cc(C)n(C2CCN(C(=O)c3cc(COc4ccccc4)[nH]n3)C2)n1 (centres undefined)	3	1
Cc1c(Cl)cccc1NC(=O)N1CCCCC1CN1CCOCC1 (centres undefined)	10	6
COc1ccc(Nc2ccc3c(=O)c(-c4ccc(OC)c(OC)c4)coc3c2)c(OC)c1	17	7
Cc1cc(C(=O)NCc2c(C)cc(C)[nH]c2=O)c2ccccc2n1	-1	-2
CCCCCCOc1ccc(N2C(=O)c3cccc4c([N+](=O)[O-])ccc(c34)C2=O)cc1	0	-6
CC(C)CCc1nc(N2CCN(C(=O)CCc3ccccc3)CC2)c2cnn(-c3cccc(Cl)c3)c2n1	30	36
CCOc1ccc(-n2c(=O)c3ccc(Cl)cc3n(C(C)C(=O)NC3CC3)c2=O)cc1 (centres undefined)	28	36
CCS(=O)(=O)c1ccc2c(c1)N(c1cccc(F)c1)C(=O)C(C)O2 (centres undefined)	8	5
